26S disassembly: inhibitors of ATP-driven 26S proteasome dissociation, primary screen, biochemical, bead-based flow cytometry, GFP-tagged proteasome; anti-FLAG beads, GFP-proteasome disassembly; inhibition of disassembly, % (concentration not given with the values); 24,000 compounds, 0.2% hits;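 active means above 40%; inconclusive means likely self-fluorescent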;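 further: plate controls were ATP control with full disassembly for no effect and ATP-gamma-S intact proteasomes for full effect; higher percent means more bead fluorescence retained so stronger block of disassembly; stock transfer was 100 nL into about 10 µL; wells with too few beads may also be inconclusive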
VCAM-1 rise: enhancers of VCAM-1 display on endothelial cells, cell-based, plate reader, pooled HUVEC, TNFa stimulus (AID 455). HUVEC TNFa-induced VCAM-1 immunofluorescence, plate reader; numbers were filed only for top-ranked candidate wells. augmentation, % at 5 µM. 10,000 compounds, 0.2% hits;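 active means a compound raising TNF-alpha-driven VCAM-1 surface staining, with its hit status upheld on visual or statistical review; inactive means the rest, including hits rejected on review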;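 further: 0% = TNFa with vehicle and 100% = strongest image-checked hit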
* marks the source's active call; other numbers are inactive results; i = inactive; ? = inconclusive; . = no result given. Some of the compounds tested; rates above refer to the full screens.

SMILES	26S disassembly	VCAM-1 rise
CCS(=O)(=O)N1CCCC(C(=O)NCc2ccc(C)cc2)C1 (stereo not given)	-1.5	.
CN1CCN(CCCNC(=O)c2cn(C)c3ccc(S(=O)(=O)N(C)C)cc3c2=O)CC1	-1.4	.
CC(C(=O)O)c1ccc(-c2ccccc2)c(F)c1 (stereo not given)	-0.8	i
Cc1nc2ncnn2c(C)c1CCC(=O)N1CCN(C(=O)c2ccco2)CC1	-0.2	.
CCN(CC)c1ccc2cc(-c3nc4ccccc4[nH]3)c(=O)oc2c1	?	100*
COc1cccc(-c2cc(C(=O)Nc3cc(C)n(Cc4ccc(Cl)cc4)n3)no2)c1	1.2	i
Cc1ccc(-c2csc3ncn(-n4c(C)ccc4C)c(=O)c23)o1	1.2	i
COc1cccc(-n2c(Cc3cc(=O)[nH]c(=O)[nH]3)nnc2SCC(=O)N2CCC(C)CC2)c1	-0.8	.
COc1ccc(Cl)cc1Nc1cc(C)nc2nc(C)nn12	-1.7	.
CC(C)C(=O)N1CCN(c2nc(-c3ccccc3)c3c(c2C#N)CCCC3)CC1	1.0	i
Cc1cccc(N(C)C(=O)COc2cc(=O)n(C)c3ccccc23)c1	3.8	.
O=C(Cn1nnc(-c2ccccc2)n1)Nc1ccccc1N1CCOCC1	-0.4	i
COc1cccc(CNC(=O)CCS(=O)(=O)c2cccc3nsnc23)c1	-1.7	i
COc1ccc(-c2cc3ccc(OCc4nn[nH]n4)cc3oc2=O)cc1	4.4	i
O=C(CN1C(=O)C2C3C=CC(C3)C2C1=O)Nc1ccc2nccnc2c1 (stereo not given)	-0.6	.
CCS(=O)(=O)N1CCC(C(=O)NCCc2ccccc2)CC1	0.5	.
CCOC(=O)C1CCN(C(=O)c2cc3cc4cc(OC)ccc4nc3o2)CC1	-1.0	.
O=C(NCCN1CCCC1)C1CC(=O)N(C2CCCCC2)C1 (stereo not given)	2.9	.
CCC1(C(=O)OC)NC(c2cccc(F)c2)C2C(=O)N(C)C(=O)C21 (stereo not given)	1.8	i
CCOC(=O)c1c(C)oc2c1c(C=NC1CCS(=O)(=O)C1)c(O)c1ccccc12 (stereo not given)	4.1	.
O=C(C1CCN(c2ccc(N3CCOCC3)nn2)CC1)N1CCN(c2ccc(F)cc2)CC1	-1.7	.
COC(=O)c1ccc(NC(=O)C2C3C=CC(O3)C2C(=O)O)cc1 (stereo not given)	-0.1	.
Nc1nc(NC(=O)c2cccs2)nn1-c1ccccc1	-0.4	i
Cc1cccc(NC(=O)CCCCCN2C(=O)c3ccccc3C2=O)n1	-0.4	i
N#C/C(C(=O)N1CCOCC1)=C1/SC(Cc2ccccc2)C(=O)N1c1ccccc1 (stereo not given)	-0.5	i
CC1=C/C(=C\c2ccc3c(c2)OCO3)C(=O)S1	0.1	.
O=C1CSC(c2ccccc2F)N1c1cc(Cl)ccc1O (stereo not given)	1.5	.
CCOC(=O)N1CCN(C(=O)c2ccc3c(c2)N(CC)CCS3)CC1	1.7	.
COc1cccc(N2C(=O)C3CCCN3C2c2ccc(N(C)C)cc2)c1 (stereo not given)	16	.
CCCCCOC(=O)C1=C(C)N(C)C(=O)NC1c1cc(Br)c(O)c(OC)c1 (stereo not given)	-1.6	i
CCOC(=O)c1sc(NC(=O)CCn2nnc3ccccc32)c(C(=O)OCC)c1C	0.6	.
Cc1cc(Oc2ccccc2)nc(-c2ccccc2)n1	-2.1	i
CCOC(=O)/C(C#N)=C1/C=CN(C)C=N1	0.0	.
Cc1ccccc1CSc1ncc(C#N)c(N)n1	1.4	.
O=C(CSc1nnc(Cn2c(=O)sc3ccccc32)n1CCc1ccccc1)N1CCCC1	-2.9	.
Cc1cnc(SCCc2ccncc2)nc1C	0.7	i
COC(=O)c1ccc(CNC(=O)COc2ccccc2Br)o1	0.2	i
CCN(CC)C(=O)c1cc(-c2ccc(Br)cc2)on1	1.1	.
CCOC(=O)N1CCC(N2Cc3cccc(C(=O)N4CC(C)CC(C)C4)c3C2=O)CC1 (stereo not given)	-1.2	.
CCOC(=O)N1CCC(NC(=O)c2cc3c(=O)n(C)c4ccccc4c3n2C)CC1	-0.3	i
C=C(C)c1cccc(C(C)(C)NC(=O)N2CCN(c3ccccn3)CC2)c1	1.2	.
CSc1nnc(-c2cnccn2)n1Cc1ccccc1	-2.3	i
O=C1CCc2cc(S(=O)(=O)N3CCC(C(=O)NC4CCCc5ccccc54)CC3)ccc2N1 (stereo not given)	-0.3	.
O=C(c1noc2c1CCCC2)N1CCN(c2ccc(F)cc2)CC1	-0.8	.
CN(C(=O)c1ccccn1)c1nnc(-c2cccnc2)s1	1.0	i
CCCCN1C(=O)C2C(c3ccc(OC)cc3O)NC(CC(C)C)(C(=O)O)C2C1=O (stereo not given)	-0.9	.
O=C(CCn1nc(-c2ccccc2)ccc1=O)N1CCN(c2ccccn2)CC1	-0.8	.
Cc1nc2sc(C(c3cccs3)N3CCC4(CC3)OCCO4)c(O)n2n1 (stereo not given)	-1.9	.
CC(C)CCNC(=O)c1ccc2c(c1)N(Cc1ccccc1)C(=O)CS2=O (stereo not given)	0.9	.
CCOc1ccccc1NC(=O)CCS(=O)(=O)c1cccc2nonc12	0.5	.

Next section
SMILES	26S disassembly	VCAM-1 rise
Cc1ccc(C)c(OCC(=O)Nc2ccc3c(c2)OCO3)c1	2.3	.
COc1ccc(N2CCN(C(c3cccs3)C(C)NS(=O)(=O)c3ccccc3)CC2)cc1 (stereo not given)	-0.3	.
CCOC(=O)c1ccccc1NC(=O)CSc1nnc(COc2ccccc2C)n1C	-0.6	i
COCCOC(=O)C1=C(C)N=C2SCCC(=O)N2C1c1cc(Br)ccc1OC (stereo not given)	0.1	.
CCn1cc(C(=O)NC2CCCCCC2)c2cc(OC)c(OC)cc2c1=O	-0.1	.
Cc1ccc(N(CC(=O)N2CCN(C3CCCCC3)CC2)S(=O)(=O)c2cccnc2)cc1	0.9	.
CC1(C)CC(=O)C2=C(C1)OC(N)=C(C#N)C2c1cccc(OC(=O)c2ccco2)c1 (stereo not given)	-0.5	.
Cc1nc2sc(C(c3cccs3)N3CCOCC3)c(O)n2n1 (stereo not given)	-0.8	i
Cc1nn(C)c(C)c1S(=O)(=O)N1CCCC(C(=O)NCCc2ccc(Cl)cc2)C1 (stereo not given)	2.0	.
CSc1ccccc1NS(=O)(=O)c1ccccc1	-0.6	i
COc1ccc(C)cc1NC(=O)COCC(=O)O	-0.3	i
CCOC(=O)Nc1ccc(C(=O)NCC2CCCO2)cc1 (stereo not given)	-1.4	.
COc1ccc(CNC(=O)c2nnn(Cc3ccc(OC)cc3)c2N)cc1	0.9	i
CCOC(=O)C1C(=O)OC(C)(C)C1C(C)C(=O)c1ccc(OC)cc1 (stereo not given)	-1.8	i
COc1ccccc1-n1c(SCC(=O)Nc2ccc3c(c2)OCO3)nc2c(c1=O)SCC2	1.8	i
O=c1cc(N2CCC3(CC2)OCCO3)[nH]c(=O)n1-c1ccc(Cl)cc1	-6.4	.
COc1ccc(N2CCN(CCCNC(=O)CCCn3c(=O)[nH]c4ccsc4c3=O)CC2)cc1	-0.3	.
CCOC(=O)c1c(C)[nH]c(C)c1C(=O)COc1ccc(NC(=O)c2ccco2)cc1	-2.5	.
CC1CCN(C(=O)CSc2nnc(-c3ccco3)o2)CC1	2.3	.
CCOC(=O)N1CCN(C(=O)c2cc(-c3ccc(OCC)cc3)nc3ccccc23)CC1	0.7	.
COCCNC(=O)c1cc(-c2cccs2)on1	-2.2	i
COc1cccc(-c2cc(C(F)(F)F)nc(N3CCCCC3)n2)c1	0.9	.
CC(C)Cn1c(N)c(C(=O)COC(=O)c2ccc3c(c2)OCCO3)c(=O)n(C)c1=O	-0.3	i
Fc1cccc(CSc2nc3ccncc3[nH]2)c1	-1.4	.
CCCOc1ccc(C(CC(=O)O)NC(=O)c2ccc3c(c2)OCO3)cc1 (stereo not given)	-0.9	.
CCc1ccccc1S(=O)(=O)Cc1ccc(C(=O)N2CCN(c3ccccn3)CC2)o1	-0.5	.
Cc1ccc(CS(=O)(=O)Cc2ccc(C(=O)NCc3cccnc3)o2)cc1	0.6	.
O=C(CNS(=O)(=O)c1ccccc1)NCc1ccccn1	-0.7	i
COc1ccc(-c2cc(C(F)(F)F)nc(N3CCCCCC3)n2)cc1	0.7	.
CCN(CC)C(=O)c1cn(CC)c(=O)c2cc(OC)c(OC)cc12	-0.2	.
Cn1c(=O)c2c(nc(CN3CCc4ccccc4C3)n2Cc2cccc(Cl)c2)n(C)c1=O	-0.6	i
O=C(CCn1c(=O)sc2ccccc21)NCCCn1ccnc1	-1.8	.
CC(=O)c1ccc(OCC(=O)NC2CCS(=O)(=O)C2)cc1 (stereo not given)	-0.4	.
CC1CCCN(C(=O)C2c3ccccc3C(=O)N3CCc4ccccc4C23)C1 (stereo not given)	-0.1	.
CC(C)Oc1ccc(C(CC(=O)O)NC(=O)CSc2ncn[nH]2)cc1 (stereo not given)	1.0	.
CCN1CCN(c2cc(C)c3cc(NC(=O)c4ccc5c(c4)OCO5)ccc3n2)CC1	-1.0	.
CCCCCOC(=O)NCCOC(=O)Nc1ccc(C(=O)OCC)cc1	0.0	.
CCOc1ccc(-n2c(SCC(=O)NC(C)CC)nc3n[nH]c(C)c3c2=N)cc1 (stereo not given)	-1.8	.
O=C(c1ccco1)N1CCN(C2=NS(=O)(=O)c3ccccc32)CC1	1.4	i
O=C(CN1CCN(CC(=O)Nc2ccccc2Cl)CC1)Nc1ccc2c(c1)OCCO2	-0.2	.
Cc1cccc(NC(=O)C2CCN(S(=O)(=O)c3cccc4nsnc34)CC2)n1	0.8	.
COc1ccc(-n2c(=O)c3c4c(sc3n3c(C)nnc23)CCCC4)cc1	0.1	i
COc1ccccc1-c1cc(C(=O)NCc2ccco2)no1	1.4	.
CCCc1nnc(NC(=O)CCC(=O)O)s1	-1.1	.
COc1ccc(C2C(C(=O)N3CCN(c4ccccn4)CC3)CC(=O)N2c2ccc(OC)cc2)cc1 (stereo not given)	0.5	.
CCOC(=O)N1CCN(C(=O)c2cccc(-n3c(=S)[nH]c4cc(Cl)ccc4c3=O)c2)CC1	1.7	.
CCOc1ccc2nc(SCC(=O)N3CCCCCC3)c(C#N)cc2c1	4.3	i
CCn1c2ccccc2c2cc(N)ccc21	?	i
COCCn1nnnc1C(C(C)C)N(Cc1cccnc1)Cc1ccccc1Cl (stereo not given)	-2.3	i
COc1ccc(CCNC(=O)CCN2C(=O)C(C)Oc3ccc(C)cc32)cc1OC (stereo not given)	2.2	.

An excerpt from further up, for reference:
SMILES	26S disassembly	VCAM-1 rise
Cc1cccc(NC(=O)C2CCN(S(=O)(=O)c3cccc4nsnc34)CC2)n1	0.8	.
COc1ccc(-n2c(=O)c3c4c(sc3n3c(C)nnc23)CCCC4)cc1	0.1	i
COc1ccccc1-c1cc(C(=O)NCc2ccco2)no1	1.4	.

(next part)
SMILES	26S disassembly	VCAM-1 rise
CCCS(=O)(=O)N1CCC(C(=O)NCCCN(C)Cc2ccccc2)CC1	-1.4	.
O=C(NC(NC1CCS(=O)(=O)C1)C(=O)c1ccccc1)c1ccc(Cl)cc1 (stereo not given)	-0.5	.
CCn1c(SCC(=O)Nc2ccc(Cl)cc2)nnc1C1CC1	-0.2	i
COc1cccc(CNC(=O)C2CCN(S(=O)(=O)N3CC(C)CC(C)C3)CC2)c1 (stereo not given)	-1.2	.
C=CCN(C1CCCCC1)S(=O)(=O)c1ccc2c(c1)oc(=O)n2C	0.8	.
Cc1cccc(N(C)c2cc(C)nc3ncnn23)c1	0.3	.
O=C(c1ccccc1-c1nc(-c2ccccc2)no1)N1CCCC1	0.2	i
CCOC(=O)N1CCC(N2C(=O)c3ccccc3C2Nc2cc(C(=O)OC)cc(C(=O)OC)c2)CC1 (stereo not given)	-5.0	.
Cc1occc1C(=O)N1CCN(Cc2ccccc2)CC1	0.8	i
C=CCNS(=O)(=O)c1cccc2cc(C(=O)O)c(O)cc12	-1.4	.

Retrieved one by one from the entries so far:
SMILES	26S disassembly	VCAM-1 rise
O=C(c1ccccc1-c1nc(-c2ccccc2)no1)N1CCCC1	0.2	i
C=CCNS(=O)(=O)c1cccc2cc(C(=O)O)c(O)cc12	-1.4	.

Going on with the list:
SMILES	26S disassembly	VCAM-1 rise
COc1cccc(NC(=O)c2oc3ccccc3c2NC(C)=O)c1	-1.2	.
Cc1ccccc1S(=O)(=O)NC1OC(=O)C(Cl)=C1Cl (stereo not given)	-0.5	.
Cc1cc(NC(=O)CCC(=O)N(CC(=O)NC2CCCC2)Cc2ccc(F)cc2)no1	2.8	i
Cc1csc(NC(=O)CCn2c(=O)oc3ccccc32)n1	-0.9	i
COc1ccc(CCNC(=O)C2CCN(S(=O)(=O)c3c(C)noc3C)CC2)cc1OC	0.7	.
COc1ccccc1NC(=O)C1=C(C)Nc2nnnn2C1c1cc(Br)ccc1OC (stereo not given)	0.7	.

Given with bars between the fields: five of the compounds above
SMILES | 26S disassembly | VCAM-1 rise
CCN(CC)C(=O)c1cc(-c2ccc(Br)cc2)on1 | 1.1 | .
CCOC(=O)N1CCC(N2Cc3cccc(C(=O)N4CC(C)CC(C)C4)c3C2=O)CC1 (stereo not given) | -1.2 | .
CCOC(=O)N1CCC(NC(=O)c2cc3c(=O)n(C)c4ccccc4c3n2C)CC1 | -0.3 | i
C=C(C)c1cccc(C(C)(C)NC(=O)N2CCN(c3ccccn3)CC2)c1 | 1.2 | .
CSc1nnc(-c2cnccn2)n1Cc1ccccc1 | -2.3 | i

Assay outcomes deposited in PubChem BioAssay by several laboratories.
